Screening data as filed in PubChem.
Tgondii IFNg: T. gondii growth inhibition under IFN-gamma | actives 3.8% (n = 69,000) | Toxoplasma gondii growth in IFN-gamma-treated host cells; hits give low values; reference of the scale not given here | AID 1259416 | activity change, negative = inhibition, %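 (about 20 µM by stock and volumes)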;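 active = below -70%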;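 also: host cells are HeLa cells infected with Toxoplasma gondii; parasite growth read as luciferase light; one replicate is shown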
* hit, by the source's call. These rows are one share of the data; count on the stated rates, not on these rows.

SMILES	Tgondii IFNg
CNC(=O)c1ccc(-c2nc(CN3CCN(S(=O)(=O)c4ccc(C(C)C)cc4)CC3)c(C)o2)cc1	46
Cn1cc(CN2CCN(CCO)CC2)c(-c2ccc(Oc3ccccc3)cc2)n1	-26
CCCNC(=O)C[C@H]1CC[C@@H]2[C@H](COC[C@@H](O)CN2C(=O)Nc2ccc(Cl)c(Cl)c2)O1	-18
O=C(C1CCCC1)N1CCc2c([nH]c3ccccc23)C12CCN(Cc1ccccc1)CC2	-37
CCCCC(CC)CNC(=O)CCCCCN1C(=O)c2ccccc2C1=O (stereo not drawn)	13
CC(c1ccncn1)N(C)C(=O)c1cccc(C#CC(C)(C)O)c1 (stereo not drawn)	1
COCCN1CCOCC2(CCCN(C(=O)c3ccc(-n4cccc4)cc3)C2)C1 (stereo not drawn)	-4
O=C(c1cccnc1)N1CC(=O)N2[C@H](CO)[C@@H](c3ccc(-c4ccccc4F)cc3)[C@@H]2C1	-22
COc1ccc2[nH]cc(CCN3CC(C(=O)NC4CCCC4)CC3=O)c2c1 (stereo not drawn)	174
O=C1CC2(CCN(S(=O)(=O)Cc3ccccc3)C2)CN1c1cccc(F)c1 (stereo not drawn)	-50
COc1ccc(-n2nnnc2SCC(N)=O)cc1	9
Cc1nc(C)n(CC2CCC3(COCCN(S(C)(=O)=O)C3)O2)n1 (stereo not drawn)	5
Cc1ccc(C)c(NC(=O)CSc2ncc(-c3ccc(F)cc3)n2Cc2ccco2)c1	-58
C[C@H]1CN([C@@H](C)CO)C(=O)CCCn2nncc2CO[C@H]1CN(C)S(=O)(=O)c1ccc(Oc2ccccc2)nc1	95
COc1ccc(-c2nc(CN3C(=O)C(O)(c4cccc(F)c4)c4ccccc43)c(C)o2)cc1 (stereo not drawn)	-74*
CCC(CC)n1nc(C)cc1NC(=O)c1ccc2c(c1)OCC(=O)N2	0
Cc1ccc2nc(C)c(C(=O)N3C[C@H](O)[C@@H](N4CCCCC4)C3)cc2c1	-13
O=C(OCC(O)C(O)COC(=O)c1ccccc1)c1ccccc1 (stereo not drawn)	12
COc1c(F)cccc1C(=O)NCCC(=O)N1CCC(C)CC1	17
O=C(NCCN1CCc2ccccc21)C1CC2(CCNCC2)CN1 (stereo not drawn)	-3

Part of the list above, reformatted.
molecule: Cc1ccc(C)c(NC(=O)CSc2ncc(-c3ccc(F)cc3)n2Cc2ccco2)c1
- Tgondii IFNg = -58

molecule: C[C@H]1CN([C@@H](C)CO)C(=O)CCCn2nncc2CO[C@H]1CN(C)S(=O)(=O)c1ccc(Oc2ccccc2)nc1
- Tgondii IFNg = 95

molecule: COc1ccc(-c2nc(CN3C(=O)C(O)(c4cccc(F)c4)c4ccccc43)c(C)o2)cc1 (stereo not drawn)
- Tgondii IFNg = -74*

molecule: CCC(CC)n1nc(C)cc1NC(=O)c1ccc2c(c1)OCC(=O)N2
- Tgondii IFNg = 0

(listing goes on)
SMILES	Tgondii IFNg
COc1ccc(S(=O)(=O)Nc2ccc3c(c2)CC(=O)N([C@@H](C)CO)C[C@H](C)[C@@H](CN(C)C(=O)Nc2c(C)noc2C)O3)cc1	-12
O=C(C1CCC1)N1CCCCN2[C@@H](CO)[C@@H](c3ccc(-c4ccncc4)cc3)[C@@H]2C1	28
c1ccc(C[C@H]2CN3CCC[C@H]3CN2Cc2ccnn2C2CCCCO2)cc1 (stereo partly drawn)	-7
CCOc1ccc(N2C(=O)CC(Cc3cc(C)cc(C)c3)C2=O)cc1 (stereo not drawn)	-41
COc1cc(N2CCC3(CC2)COCCN3S(C)(=O)=O)ncn1	-1
COc1cc(CCC(=O)N2CCc3onc(-c4ccccc4F)c3C2)ccc1C	-11
Cc1ccc(-c2nc(C)c(CCNC(=O)C(=O)Nc3cccc([N+](=O)[O-])c3)s2)cc1	120
O=C(CN1C(=O)CCc2cc(S(=O)(=O)N3CCCC3)ccc21)NC1CCCCCC1	2
COC(=O)CSc1nc(C)c(C)c(C)c1C#N	28
CC(C)C(=O)NCCc1csc(C2CCN(C(=O)Nc3ccccc3F)CC2)n1	-15
CC(=O)Nc1ccccc1C(=O)C(=O)Nc1ccccc1	-10
O=C(NCc1ccccc1)C1CC2(CO1)CN(C(=O)c1ccc(F)cc1)c1ccccc12 (stereo not drawn)	-17
O=C(CCc1cc(=O)[nH]o1)N1C[C@H]2CC=CC[C@H]2C1	1
O=C(CN1CCOCC1)N1CC2(C1)[C@@H](c1ccccc1)[C@@H](CO)N2Cc1cccc(F)c1	-36
O=c1oc(-c2ccc(Cl)cc2)nc2ccccc12	352
CC(C)N1CCOC(CC(=O)N2CC(c3ccncc3)C2)C1 (stereo not drawn)	-4
CC(C)Cc1ccc(S(=O)(=O)N2CCc3nc(-c4ccccc4)sc3C2)cc1	30
COc1cc(N2CC[C@]3(CCC[C@H](CNS(C)(=O)=O)O3)C2)ncn1	52
CCOC(=O)C1CCN(c2ncnc3c2cnn3C)CC1	-14
COc1cccc(C2CCN(c3cc(C4CCNCC4)ncn3)C2)c1OC (stereo not drawn)	-7

As entered above.
`COc1cc(N2CC[C@]3(CCC[C@H](CNS(C)(=O)=O)O3)C2)ncn1` in Tgondii IFNg reads 52
`c1ccc(C[C@H]2CN3CCC[C@H]3CN2Cc2ccnn2C2CCCCO2)cc1` (stereo partly drawn) in Tgondii IFNg reads -7
`O=C1CC2(CCN(S(=O)(=O)Cc3ccccc3)C2)CN1c1cccc(F)c1` (stereo not drawn) in Tgondii IFNg reads -50
`COc1c(F)cccc1C(=O)NCCC(=O)N1CCC(C)CC1` in Tgondii IFNg reads 17
`COc1cccc(C2CCN(c3cc(C4CCNCC4)ncn3)C2)c1OC` (stereo not drawn) in Tgondii IFNg reads -7
`CCOC(=O)C1CCN(c2ncnc3c2cnn3C)CC1` in Tgondii IFNg reads -14

Carrying on:
SMILES	Tgondii IFNg
NC(Cn1ccc(=O)n(Cc2ccccc2C(=O)O)c1=O)C(=O)O (stereo not drawn)	19
COc1ccc2c3c(n(C)c2c1)[C@@H](CO)N(C(=O)c1ccncc1)CC31CCN(CC2CC2)CC1	-20
CCn1ncnc1-c1c(-c2ccccc2)ncn1CCNc1cccnc1	0
CCc1nc(C)sc1CNC(=O)C1CC(C(C)C)=NO1 (stereo not drawn)	-8
CC1=C(C(=O)NCCCN2CCN(C)CC2)C2(CCN(S(=O)(=O)c3cccs3)CC2)OC1=O	31
COc1cccc(C(NC(=O)c2cc(-c3ccc(F)cc3)on2)c2nccn2C)c1 (stereo not drawn)	-38
O=c1oc2ccc(Cl)cc2cc1-c1csc(-c2cccc([N+](=O)[O-])c2)n1	-3
Cn1nnc2c1C(COCc1ccccn1)CN(Cc1cccs1)C2 (stereo not drawn)	-1
Cc1ccc(C)c(N2C(=O)CN=C2Nc2ccc(F)cc2)c1	11
COCC(=O)N1CCC2C1CCC(=O)N2c1cnn(C)c1 (stereo not drawn)	-12
CCc1nc(CNc2nccc(-c3cn(C)nc3C)n2)cs1	-9
COc1ccc2oc(-c3ccco3)cc(=O)c2c1	223
CN1CC2(CCN(C(=O)c3n[nH]c4ccccc34)CC2)CC1C(=O)O (stereo not drawn)	6
O=C(NCc1ccccc1F)c1nc(N2CCOCC2)c2ccccc2n1	-34
Cn1cnc2cc(C(=O)N3CCC(c4[nH]ncc4-c4ccccc4)CC3)cnc21	-24
Cc1nc(-c2cccc(F)c2)sc1CCNC(=O)c1cc2ccccc2oc1=O	51
CN1CC2(CCN(C(=O)c3ccc(Oc4ccccc4)o3)C2)OC1=O (stereo not drawn)	0
CCN1C(=O)CCc2cc(C(=O)NC(C)C)ccc21	35
CCCC(=O)N1CC2(C1)CN(C(=O)c1ccc(F)cc1)[C@@H](CO)c1[nH]c3cc(OC)ccc3c12	-10
CC1CCN(c2ncnc3c2cnn3CC(=O)Nc2ccc(OC(F)(F)F)cc2)CC1	-33

Two successive entries out of the list so far, quoted:
SMILES	Tgondii IFNg
Cc1nc(-c2cccc(F)c2)sc1CCNC(=O)c1cc2ccccc2oc1=O	51
CN1CC2(CCN(C(=O)c3ccc(Oc4ccccc4)o3)C2)OC1=O (stereo not drawn)	0

More compounds.
SMILES	Tgondii IFNg
OC[C@@H]1[C@H](c2ccc(Br)cc2)[C@H]2CNCCCCN12	12
CCN1CCC2(CCCN(CC3CCOC3)C2)C1=O (stereo not drawn)	-53
c1ccc(CN2CCC3(CC(Nc4cnccn4)CO3)C2)cc1 (stereo not drawn)	2
Cc1cccc(S(=O)(=O)N2CCC(N(C)C)CC2(C)C(=O)O)c1 (stereo not drawn)	1
O=C(O)CSc1nnc(Nc2ccccc2)n1-c1ccccc1	42
Cc1ccsc1C(=O)N1Cc2ncn(C)c2C(COCC2CC2)C1 (stereo not drawn)	61
CC(=O)c1c(C)nn(CC(=O)N2CCCC3(CC2)CNC(=O)O3)c1C (stereo not drawn)	-5
CCCc1nnc(SCC(=O)NC2CCCC2)n1Cc1ccco1	7
CC(C)C(NC(=O)c1ccccc1F)c1cc(=O)[nH]c(-c2cccnc2)n1 (stereo not drawn)	42
CCN1c2cc(C)ccc2-n2cccc2C12CCN(C(=O)Nc1cccc(SC)c1)CC2	-87*
CN1C(=O)c2cc(NC(=O)c3cccc(F)c3)ccc2OC[C@@H]2O[C@@H](CC(=O)NCc3ccccc3Cl)CC[C@H]21	-34
Cc1ccc(-c2noc(-c3c(O)c4ccccc4n(C)c3=O)n2)cc1C	-5
OCCC1CN(Cc2ccccc2-c2ccco2)CCN1C1CCCC1 (stereo not drawn)	22
Cc1ccccc1Cn1c(CN2CCC(C(=O)NCCCN3CCCC3=O)CC2)cc2ccccc21	-1
COCCN1C(=O)CCc2cc(NC(C)=O)ccc21	-28
Cn1cccc1C(=O)N1CCC2(CCCN2CC2CC2)CC1	-4
CCc1ccc(NC(=O)Cn2c(=O)cc(C(=O)N(C)C)c3ccccc32)cc1	6
O=C(O[C@H]1CN2CCC1CC2)N1CCc2ccccc2[C@@H]1c1ccccc1	-12
Cc1nc2ncccn2c1C(=O)N1CCC(c2cc(C(C)C)n[nH]2)CC1	-2
Cc1ccc2[nH]cc(-c3nc(C)cnc3C)c2c1	-33
Cc1ccc2c(c1C)-n1cccc1C1(CCN(S(=O)(=O)c3ccc(Cl)s3)CC1)N2	33
CN(C)S(=O)(=O)c1ccc2c(c1)cc(C(=O)NCCC1=CCCCC1)n2Cc1ccncc1	-55
Cc1ccccc1S(=O)(=O)N1C[C@@H](O)COC[C@H]2O[C@@H](CC(=O)N3CCCCC3)CC[C@@H]21	11
Cc1ccccc1C(C(=O)N1CCCN(C)C2(CCN(C)CC2)C1)N(C)C (stereo not drawn)	1
Cc1nn(C)cc1CN1CC[C@@H]2OCCN(C(=O)c3ccncc3)[C@@H]2C1	3
CC(c1ccccc1F)n1cc(C(=O)NCCN2CCOCC2)nn1 (stereo not drawn)	-3
COc1ccc2c(c1)C=C(CNC(Cc1ccsc1)c1ccc(C)cn1)CO2 (stereo not drawn)	13
COc1ccc(CC(=O)NCCc2csc(-c3ccc(F)cc3)n2)cc1OC	46
CO[C@H](CN(C)C(=O)c1cc(Cl)cc(Cl)c1)[C@@H](C)CN(C(=O)Nc1ccc(F)cc1)[C@H](C)CO	-7
COCC(=O)N1CCCC(C(=O)N(C)Cc2cc(C(C)(C)C)n[nH]2)C1 (stereo not drawn)	5
COc1ccc2c3c([nH]c2c1)[C@@H](CO)N(C(=O)Nc1ccc(F)cc1)CC31CCN(C(=O)c2ccccc2F)CC1	157
CC(C)(C)C(=O)C(Cc1c(F)cccc1Cl)C(=O)C(C)(C)C	-24
C=CCN1C[C@H]2CN(C(=O)c3ccc(C)nc3)CCC[C@]2(C(=O)O)C1	-9
O=C(Cn1cc(NC(=O)CC2(O)CCCCC2)cn1)Nc1cccc(C(F)(F)F)c1	2
CN(Cc1cc2n(n1)CCNC2)Cc1cc(-c2ccccn2)no1	12
O=C(O)[C@H]1C[C@H](C(=O)NCc2ccccn2)CN(C2Cc3ccccc3C2)C1	2
Cc1cc(C(F)F)nn1CC(=O)N1CCC(c2nc(-c3cccnc3)cc(=O)[nH]2)C1 (stereo not drawn)	-7
COc1ccc2c3c(n(C)c2c1)[C@@H](CO)N(CC1CC1)CC31CN(C(=O)c2ccc3c(c2)OCO3)C1	8
COc1cc(OC)c(C2=NOC(C(=O)N3CCCCCC3c3ccn(C)n3)C2)cc1Cl (stereo not drawn)	-1
CN1c2ccc(Br)cc2[C@H]2[C@H](CCN2C(=O)CN2CCOCC2)[C@@H]1CO	16
O=C(Nc1ccccc1)c1ncn2c1CN(CC1CC1)S(=O)(=O)c1ccccc1-2	-33
Cc1[nH][nH]c(=O)c1CC(=O)N(C)Cc1ccc2nsnc2c1	5
CO[C@@H]1CN(C)C(=O)c2cc(NS(C)(=O)=O)ccc2OC[C@@H](C)N(Cc2cncnc2)C[C@@H]1C	32
Cc1c(Cl)cccc1NC(=O)CN1C(=O)CCc2cc(S(=O)(=O)N3CCC(C)CC3)ccc21	30
COCCN1CC[C@@]2(CN(Cc3ccco3)C[C@H]2c2ccccc2)C1=O	-11
CCS(=O)(=O)N(C)[C@H]1c2cc(C#N)ccc2OC(C)(C)[C@@H]1O (racemic)	9
CNC(=O)c1cc2c(nc1NC(C)C)CCN(C(=O)NC1CCCC1)CC2	-48
Cc1ccc2[nH]c3c(c2c1)CCNC31C(=O)N(CC(C)C)c2ccccc21 (stereo not drawn)	413
Cc1ccc(Cc2c(C)[nH]n(-c3nc4ccccc4[nH]3)c2=O)cc1	-98*
CC(C)[C@H]1C(=O)N[C@H](c2cccc(Cl)c2)CC=CC[C@@H](C)Oc2ccccc2C(=O)N1C (mixture of isomers)	4

Next part
SMILES	Tgondii IFNg
COC(=O)c1sccc1NC(=O)c1cc(S(=O)(=O)C(C)C)c(SC)s1	-24
Cc1nc2ncccn2c1C(=O)N1CCCC(Cc2ccc(C(=O)O)cc2)C1 (stereo not drawn)	-3
Cc1cccc(-c2nc(CSc3nc4c(=O)[nH]cnc4n3C)c(C)o2)c1	10
NC(=O)C1(N2CCCCC2)CCN(c2ncc(S(=O)(=O)c3ccccc3)c(N)n2)CC1	69
Cc1ccc(NC(=O)CN2C(=O)CCc3cc(Br)ccc32)cc1F	18
